Screening data deposited in PubChem BioAssay by National Center for Advancing Translational Sciences (NCATS).
miR-21 FLuc: raises the signal of a miR-21 reporter; HeLa miR-21 FLuc reporter, luciferase, 48 h; Potency, µM (series often up to 38.3 µM), without a hit: at the top dose reporter change, positive = more light; 340,000 tested, under 10 active; AID 2288; active = well fitted rising curve with a large enough effect; inconclusive = small, poorly fitted or top-dose-only effect; inactive = no such curve, though single readings can be large or run the other way;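 further: % of control where 0% means no effect; miR-21 action dims this reporter so a rising signal means less miR-21 action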
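HeLa cells stably expressing CMV-driven firefly luciferase with a downstream miR-21 binding sequence, endogenously expressing miR-21, were treated with titrations (up to about 40uM final) for 48 hours at 37 degree Celsius. Luciferase luminescence was read after lysis.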
Rango dissoc inh: inhibition of RanGTP-driven Rango-importin beta dissociation | O95149+P62826 | Potency, µM (highest dose often 46.1 µM), for inactives: at the top dose activity change, negative = inhibition | AID 540253 | Biochemical FRET Rango-importin beta, RanGTP-induced dissociation | 340,000 compounds, 0.071% hits; active means falling FRET ratio curve, often poorly fitted, with flat reads before Ran was added; inconclusive means other falling curves, or compound fluorescence or quenching; inactive means flat or rising ratio curve;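 further: potency means the concentration at half of the fitted maximal effect; % of control where 0% means no effect; nearly all actives have a fitted effect of over 45% in size; -100% = wells without RanGTP and RCC1; the record marks most hits as doubtful in a second field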
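Two FRET readings bracket the reaction: one 5 min after compound meets Rango–importin beta, another 45 min after RanGTP-RCC1 (0.6 uM Ran, 0.2 uM RCC1, 2 mM GTP) is added. Only the second defines inhibition.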
Rango-impB inh: Rango-importin beta binding inhibition | Rango CFP/YFP FRET sensor + importin beta, 45 min | Q14974 | AID 540263 | Potency, µM (series often up to 92.2 µM), for inactives: at the top dose inhibition of complex formation | 340,000 compounds, 0.031% hits; active = rising FRET ratio curve, often small or poorly fitted; inconclusive = mostly compound fluorescence or quenching in the first reads; inactive = flat curves in all reads;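 further: potency means the concentration at half of the fitted maximal effect; 0% = DMSO wells and 100% = buffer wells lacking importin beta; nearly all actives have a fitted effect of over 15% in size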
Target sequence (Q14974 whole entry, looked up): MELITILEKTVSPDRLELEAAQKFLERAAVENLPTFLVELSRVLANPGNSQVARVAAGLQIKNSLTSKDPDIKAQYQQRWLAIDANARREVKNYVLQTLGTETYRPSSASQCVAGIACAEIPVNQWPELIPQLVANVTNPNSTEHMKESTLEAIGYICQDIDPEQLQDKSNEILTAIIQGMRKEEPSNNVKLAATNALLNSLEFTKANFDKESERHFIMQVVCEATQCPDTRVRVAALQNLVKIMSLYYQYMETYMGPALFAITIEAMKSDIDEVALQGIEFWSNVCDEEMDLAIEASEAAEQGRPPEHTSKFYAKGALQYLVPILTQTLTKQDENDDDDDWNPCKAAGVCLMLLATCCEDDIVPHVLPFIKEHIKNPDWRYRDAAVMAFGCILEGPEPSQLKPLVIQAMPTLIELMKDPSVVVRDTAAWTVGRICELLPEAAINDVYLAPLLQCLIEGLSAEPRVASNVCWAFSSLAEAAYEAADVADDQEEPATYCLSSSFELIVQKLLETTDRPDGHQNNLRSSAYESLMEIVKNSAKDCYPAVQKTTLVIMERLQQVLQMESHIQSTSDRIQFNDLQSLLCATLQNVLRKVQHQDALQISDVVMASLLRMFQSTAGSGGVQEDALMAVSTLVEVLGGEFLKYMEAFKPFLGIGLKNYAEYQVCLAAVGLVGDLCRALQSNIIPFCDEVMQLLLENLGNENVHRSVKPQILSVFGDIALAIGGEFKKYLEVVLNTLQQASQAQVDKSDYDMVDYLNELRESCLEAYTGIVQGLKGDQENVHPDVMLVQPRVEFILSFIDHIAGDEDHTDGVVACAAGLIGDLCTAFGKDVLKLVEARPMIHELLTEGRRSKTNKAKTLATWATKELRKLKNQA
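FRET biosensor (snurportin 1 IBB flanked by EYFP and cerulean), 50 nM, with compound 5 min, then 0.125 microM importin beta in PBS, 1 mM DTT, 0.02% Tween-20, 0.1% BSA. CFP/YFP ratio read after 45 min at room temperature; pre-read flags interference.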
GLA inh pH 4.5: blocks human alpha-galactosidase A at pH 4.5 | activity change, negative = inhibition, % at 105 µM | 230,000 tested, under 10 active | purified enzyme, 4-MU-alpha-Gal fluorescence, pH 4.5; inconclusive = small, poorly fitted or top-dose-only inhibition, or a rising curve; inactive = flat fitted curve, though single readings scatter; no compound was filed as active;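 further: 0% = full activity with enzyme and -100% = basal without enzyme; dose as in the result columns while the protocol names 77 µM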
Active calls of the source: *; u = inconclusive; x = no result given; & = joins results of further samples. This is a subset; count on the stated rates, not on these rows.

GLA inh pH 4.5,Rango dissoc inh,miR-21 FLuc,Rango-impB inh,smiles
5,-4%,-14%,-0.4%,Cc1ccccc1-n1c(CSC(=N)N)nc2ccccc2c1=O
-1,2%,-64%,-0.2%,COc1ccc2c(c1)CCC/C2=N\NC(=O)c1ccoc1C
8,-1%,4%,2.0%,COc1ccc(/C=C/C2=CC(C)(C)NC(=S)N2)c(OC)c1
0,1%,2%,0.1%,Cc1cc(N2CCCC2=O)cc(C)c1S(=O)(=O)Nc1c(C)nn(C)c1C
6,-13%,-25%,u,COc1cccc(C(=O)N(C)c2nnc(-c3ccncc3)s2)c1
x,5%,-1%&-2%,-3.5%,COCCCNC(=O)CN1C(=O)COc2ccc(S(=O)(=O)N3CCOCC3)cc21
x,7%,x,0.2%,COc1ccc([C@H]2/C=C\CN(S(=O)(=O)c3ccc4ccccc4c3)[C@@H](C)C(=O)N2Cc2ccc(F)cc2)cc1
-6,-10%,-11%,0.8%,CC(=C/c1ccc(C(C)C)cc1)/C=N/NC(=O)Cn1nnnc1N
1,13%,-4%,u,COc1ccc(S(=O)(=O)NCc2ccc(C(=O)N3CCc4ccccc4C3)cc2)cc1
x,0%,-12%,-0.9%,O=C(Cc1ccccc1)Nc1ccc(NC(=O)c2ccco2)cc1Cl
-1,12%,0%,1.6%,CC(=O)C1=C(O)C(=O)N(c2ccc(S(=O)(=O)Nc3nccs3)cc2)C1c1ccc(F)cc1 (stereo unspecified)
-1,11%,1%,-0.9%,Cc1cc(C)n2ncc(/C(N)=N/OC(=O)Nc3ccccc3)c2n1
x,2%,x,-3.9%,Cc1ccc(C(=O)NCC(=O)N(C)CC(=O)Nc2ccccc2Br)s1
x,-2%,x,0.7%,COc1ccc(C(=O)NNC(=O)COC(=O)c2sccc2C)cc1
x,-5%,x,0.9%,CC(=O)Nc1ccc(C=CC=Cc2cccc([N+](=O)[O-])c2)cc1
-6,1%,-7%,-1.3%,O=S(=O)(NC1=NCCCCC1)c1cccs1
14,2%,-6%,-3.7%,O=C(COC(=O)c1ccc(CO)cc1)NCc1cccs1
-3,5%,-15%,-0.2%,COC(=O)/C=C1\N/C(=N\c2nc(C)cc(C)n2)N(c2ccc(C)c(C)c2)C1=O
2,-10%,-39%,0.3%,CCOCC(=O)Nc1nc2ccccc2s1
-5,-24%,-6%,-0.8%,CC(C)=CC(=O)O[C@H]1[C@@H]2[C@H](C)C(=O)O[C@@H]2C[C@@H](C)[C@@H]2[C@@H](O)CC(=O)[C@]21C
-1,-10%,-38%,2.2%,COc1ccc(C(=O)Nc2ccccc2C(=O)NC(Cc2ccc(O)cc2)C(=O)NNC(=O)c2ccc(C)cc2)cc1 (stereo unspecified)
0,-12%,-2%,-0.7%,Cc1ccc(S(=O)(=O)N2CCOCC2)cc1NC(=O)CSc1cccc[n+]1[O-]
6,1%,-1%,-1.6%,O=C(N=Nc1c(O)[nH]c2ccc(Br)cc12)c1cc(-c2cccc3ccccc23)n[nH]1
x,0%,4%,-0.5%,Cc1c(CC(=O)N2CCC(C(N)=O)CC2)c(=O)oc2cc3c(cc12)CCC1(CCCCC1)O3
-5,u,18%,u,N#CC1=C(N)Oc2cc(O)ccc2C1C1CCCCC1 (stereo unspecified)
1,6%,-6%,-0.2%,COc1ccccc1C(=O)NCC(=O)OC(C)C(=O)NC(=O)NC1CCCCC1 (stereo unspecified)
x,-10%,-1%,-0.2%,CCOC(=O)N1CCN(C(=O)CN(C)S(=O)(=O)c2ccc(OCC)cc2)CC1
x,-9%,x,-0.1%,CC1CN(S(=O)(=O)c2cccc(C(=O)NCc3ccco3)c2)CC(C)O1 (stereo unspecified)
-1,9%,-3%,-1.8%,Cc1cccc(C2c3[nH]c4ccccc4c3CCN2C(=O)c2noc3c2CCCC3)n1 (stereo unspecified)
-22,-7%,-3%,-2.4%,COc1ccc(/C=C(\C#N)C(=O)Nc2cc(S(=O)(=O)N3CCCCC3)ccc2N2CCCCC2)cc1
-6,9%,-7%,4.8%,Cc1cc(NS(=O)(=O)c2ccc(NC(=O)Nc3cccc(Cl)c3)cc2)no1
2,0%,-2%,-3.4%,CCOCCOC(=O)NCCCCCCNC(=O)OCCOCC
x,2%,-8%,2.1%,CC/C(=N\NC(=O)c1nnn(-c2nonc2N)c1-c1ccc2c(c1)OCO2)c1ccccc1
1,-8%,1%,0.4%,CN1CCN(C(=O)c2cc3c(n(-c4ccccc4)c2=O)CC(C)(C)CC3=O)CC1
9,-3%,-6%,-1.6%,C=C1C(C(=O)N2CCOCC2)C1C(=O)N1CCOCC1 (stereo unspecified)
-11,8%,0%,-0.9%,Cc1csc(CN(C)C(=O)CC2C(=O)NCCN2Cc2ccc(-c3ccccc3)cc2)n1 (stereo unspecified)
-18,-11%,-1%,-0.2%,CCOC(=O)c1c(C)[nH]c(C)c1C(=O)CN1C(=O)NC2(CCC(C)CC2)C1=O (stereo unspecified)
-12,-11%,0%,1.0%,Nc1nc(Nc2ccccc2)nc(NCc2ccccc2)c1[N+](=O)[O-]
x,13%,1%,-4.0%,O=C(CCCC(=O)N(CC(=O)NC1CCCCC1)c1ccc(F)cc1)Nc1ccccn1
5,18%,-10%,-1.4%,CCOC(=O)c1cc(-c2ccc(OC(F)F)cc2)nc2nc(SC)[nH]c(=O)c12
5,0%,-7%,-0.8%,COc1ccc(C(=O)NCc2nnc(SCC(=O)Nc3cc(C)on3)o2)cc1OC
16,-5%,-7%,-3.2%,Cc1ccc(C(=O)NCCSCc2ccccc2)cc1[N+](=O)[O-]
x,-10%,1%,3.2%,COc1ccc(CC(=O)OCN2C(=O)c3ccccc3C2=O)cc1OC
-3,0%,0%,3.9%,CC(C)C(c1nnnn1C1CCCCC1)N1CCOCC1 (stereo unspecified)
6,-17%,-21%,u,Cc1c(C(=O)OC(C)C)sc(NC(=O)c2cccnc2)c1C#N
-2,37%,16%,1.1%,CCCc1[nH]nc2c1C(C1CCCCC1)C(C#N)=C(N)O2 (stereo unspecified)
-1,-13%,-2%,1.4%,Cc1ccc2c(c1)c1ncnc(N3CCN(c4ccccc4)CC3)c1n2C
x,-2%,x,0.2%,CC1(c2ccc3c(c2)OCO3)NC(=O)N(CC(=O)c2ccc[nH]2)C1=O (stereo unspecified)
-9,1%,u,-0.3%,CCOC(=O)c1cnc(-n2nc(C)cc2C)nc1NC1CCCC1
2,2%,0%,2.0%,O=C(CCN1CCOCC1)c1ccc(Cl)cc1
-4,-21%,3%,-3.2%,O=C(Nn1cnnc1)c1cccc(S(=O)(=O)N2CCOCC2)c1
-11,0%,-12%,-0.6%,Cc1ccc(-n2c(C)cc(C(=O)COC(=O)c3ccc[nH]c3=O)c2C)cc1
11,29%,-6%,3.1%,Cn1c2c(c(=O)n(C)c1=O)C1c3ccccc3OCC1C(C)(C)O2 (stereo unspecified)
5,10%,0%,0.7%,O=C(CC(=O)NC1CCCCC1)N/N=C/c1ccc(Cl)cc1
-2,-11%,-19%,4.4%,COc1ccc(C(CC(=O)c2ccccc2)S(=O)(=O)c2ccccc2)cc1 (stereo unspecified)
x,1%,x,-0.2%,Cc1ccc(NS(=O)(=O)c2cccc(C(=O)NCCCN3CCCC3=O)c2)cc1
x,1%,x,5.0%,CN1CCN(C2Cc3ccc(F)cc3Sc3cc(F)c(Cl)cc32)CC1 (stereo unspecified)
x,-16%,x,-0.7%,CCN(CC)C(=O)[C@H]1C[C@H](CC(=O)NCc2ccco2)C(=O)N2CCc3c([nH]c4ccc(Cl)cc34)[C@]12C
-5,-1%,-4%,0.8%,CC1(C(=O)OCC(=O)N2c3ccccc3Sc3ccccc32)CC1(Cl)Cl (stereo unspecified)
-9,-21%,-13%,1.3%,OC(CNCc1ccc(Cl)c(Cl)c1)c1ccccc1 (stereo unspecified)

5 structures from above, ordered by heavy-atom count, ascending.
GLA inh pH 4.5,Rango dissoc inh,miR-21 FLuc,Rango-impB inh,smiles
6,-17%,-21%,u,Cc1c(C(=O)OC(C)C)sc(NC(=O)c2cccnc2)c1C#N
-1,11%,1%,-0.9%,Cc1cc(C)n2ncc(/C(N)=N/OC(=O)Nc3ccccc3)c2n1
x,0%,-12%,-0.9%,O=C(Cc1ccccc1)Nc1ccc(NC(=O)c2ccco2)cc1Cl
-2,-11%,-19%,4.4%,COc1ccc(C(CC(=O)c2ccccc2)S(=O)(=O)c2ccccc2)cc1 (stereo unspecified)
-1,12%,0%,1.6%,CC(=O)C1=C(O)C(=O)N(c2ccc(S(=O)(=O)Nc3nccs3)cc2)C1c1ccc(F)cc1 (stereo unspecified)

New compounds follow
GLA inh pH 4.5,Rango dissoc inh,miR-21 FLuc,Rango-impB inh,smiles
-8,-4%,0%,2.8%,CCOc1cc(NC(=S)NC)c(OCC)cc1NC(=O)c1cccs1
-14,0%,-2%,0.8%,CC(C)C(c1nnnn1Cc1ccccc1)N1CCN(Cc2ccc3c(c2)OCO3)CC1 (stereo unspecified)
u,5%,-30%,0.8%,O=C(CSc1nc(-c2ccccc2)ns1)N1CCOCC1
x,-2%,x,-0.4%,CCOc1cc2c(cc1O)C(=NOC)CC1C2CCC2(C)C(O)CCC12 (stereo unspecified)
x,-6%,x,2.6%,C=CCSc1nnc(NC(=O)c2c(CC)noc2C)s1
4,0%,-40%,2.3%,CC(C)n1cnc2c(Nc3ccc(C(=O)O)cc3)nc(Cl)nc21
x,-1%,x,1.0%,O=C(CN1CCOCC1)NNC(=O)c1ccc(Cl)cc1
0,-16%,5%,-0.3%,N#Cc1cnn2ccn(C3OC(CO)C(O)C3O)c12 (stereo unspecified)
-17,-4%,-5%,-0.1%,Cc1nn(S(=O)(=O)c2ccc(Cl)cc2)c(C)c1Sc1ccc([N+](=O)[O-])cc1
-13,u,-55%,-0.1%,CCN(CC)c1ccc2cc(C(N)=O)c(=O)oc2c1
x,1%,x,0.4%,O=C1/C(=C\c2ccc(Cl)c(Cl)c2)CN(C(=O)CCN2CCOCC2)C/C1=C/c1ccc(Cl)c(Cl)c1
-5,u,1%,-0.5%,COc1ccc(C2=CC(=O)OC3(CCCC3)O2)cc1
-7,-8%,-2%,4.7%,O=C(c1cc(F)ccc1F)C1CCCN(C(=O)CCN2CCCCO2)C1 (stereo unspecified)
x,11%,x,4.4%,O=C(Nc1ccccc1N1CCCCC1)c1cc(S(=O)(=O)N2CCOCC2)ccc1F
-14,6%,-60%,2.2%,Cc1nn(-c2ccccc2)c(/N=C/c2ccccc2O)c1-c1ccccc1
x,-11%,-4%,-2.7%,C/C(=N/NC(=O)CNC(=O)c1ccco1)c1ccc(Cl)cc1
x,-2%,x,-3.8%,CC(C)c1ccc(NC(=O)CN2C(=O)NC3(CCCCCCC3)C2=O)cc1
-2,28%,1%,1.8%,O=C(Nc1cnccn1)Nc1ccc(Cl)cc1Cl
x,-2%,0%,3.6%,O=C(NCc1ccncc1)C12CC3CC(CC(Cl)(C3)C1)C2
2,7%,4%,-1.0%,COc1ccc(N2CCN(C(=O)CSc3ncnc4c3cnn4-c3ccc(OC)cc3)CC2)cc1
x,-8%,10%,1.6%,CCN(c1ccc(OC)cc1)S(=O)(=O)N1CCCC(C(=O)NCc2cccc(C)c2)C1 (stereo unspecified)
x,4%,x,-0.2%,Cc1cnc(NC(=O)CSCc2c(C)noc2C)s1
x,-2%,x,4.6%,C(=C(c1ccccc1)c1ccccc1)c1ccccn1
4,-3%,-21%,-1.3%,CCN1CCN(CC(=O)N2N=C(c3cccs3)CC2c2ccc(C)cc2)C(=O)C1=O (stereo unspecified)
-1,-2%,-4%,0.0%,CCOC(=O)C1CCN(Cc2coc3ccc(Cl)cc3c2=O)CC1
2,8%,-2%,4.0%,Cc1ccc(NC2c3ncccc3C(=O)N2Cc2cccs2)cc1 (stereo unspecified)
x,1%,x,0.3%,CCCN(CC(=O)Nc1ccccc1C)C(=O)c1ccc(-c2ccc([N+](=O)[O-])cc2)o1
7,-5%,2%,0.1%,CCc1c(C)nc(N)n2c(SCC(=O)N3CCCc4ccccc43)nnc12
x,2%,-1%,-0.4%,O=C(NC1CCCCC1)C(c1cccnc1)N(C(=O)c1csnn1)c1ccccc1 (stereo unspecified)
-5,-29%,-2%,u,Cc1ccc(NC(=O)COC(=O)c2ccc3c(c2)NC(=O)C2CCCN32)cc1 (stereo unspecified)
